# Rango complex inh: qHTS Assay for Inhibitors of Rango (Ran-regulated importin-beta cargo) - Importin beta complex formation. Importin subunit beta-1 (Homo sapiens), Q14974. AID 540263, 2011. Potency, µM (highest dose often 92.2 µM), for inactives: at the highest dose inhibition of complex formation. Rango CFP/YFP FRET sensor + importin beta, 45 min. 0.031% of 340,000 active; active = rising FRET ratio curve, often small or poorly fitted; inconclusive = mostly compound fluorescence or quenching in the first reads; inactive = flat curves in all reads;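 note: potency is the fitted concentration of half-maximal effect; 0% = DMSO wells and 100% = buffer wells lacking importin beta; nearly all actives have a fitted effect of over 15% in size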
#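 FRET biosensor Rango (snurportin 1 IBB between N-terminal EYFP and C-terminal Cerulean), 50 nM in PBS/1 mM DTT/0.02% Tween-20/0.1% BSA, preincubated 5 min RT with compound; 0.125 microM importin beta added, 45 min RT, CFP/YFP FRET ratio read.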
# GLA inh pH 4.5: qHTS Assay for Inhibitors of Human alpha-Galactosidase at pH 4.5; Alpha-galactosidase A (Homo sapiens), P06280; purified enzyme, 4-MU-alpha-Gal fluorescence, pH 4.5; activity change, negative = inhibition, % at 105 µM; 230,000 tested, under 10 active; AID 1467, 2008; inconclusive = small, poorly fitted or top-dose-only inhibition, or a rising curve; inactive = flat fitted curve, though single readings scatter; no compound was filed as active;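 note: 0% = full activity with enzyme and -100% = basal without enzyme; dose as in the result columns while the protocol names 77 µM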
# Target sequence (P06280 whole entry, looked up): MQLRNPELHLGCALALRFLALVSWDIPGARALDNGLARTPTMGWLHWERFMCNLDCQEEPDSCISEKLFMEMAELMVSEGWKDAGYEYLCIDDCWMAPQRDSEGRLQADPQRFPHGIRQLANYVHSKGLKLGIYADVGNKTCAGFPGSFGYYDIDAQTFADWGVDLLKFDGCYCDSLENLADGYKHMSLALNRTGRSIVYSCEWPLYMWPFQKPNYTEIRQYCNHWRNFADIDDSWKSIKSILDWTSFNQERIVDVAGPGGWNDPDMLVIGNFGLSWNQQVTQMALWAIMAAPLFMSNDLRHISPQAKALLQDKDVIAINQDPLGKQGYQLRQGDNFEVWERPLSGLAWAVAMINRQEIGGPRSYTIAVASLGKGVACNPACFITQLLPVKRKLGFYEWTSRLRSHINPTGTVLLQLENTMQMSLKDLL
# miR-21 FLuc: qHTS Assay for Modulators of miRNAs and/orActivators of miR-21. 340,000 tested, under 10 active. Potency, µM (top dose mostly 38.3 µM), inactives show at the highest dose reporter change, positive = more light. HeLa miR-21 FLuc reporter, luciferase, 48 h; active = well fitted rising curve with a large enough effect; inconclusive = small, poorly fitted or top-dose-only effect; inactive = no such curve, though single readings can be large or run the other way;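 note: % of control where 0% means no effect; miR-21 action dims this reporter so a rising signal means less miR-21 action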
#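 HeLa miR-21-FLuc reporter line, endogenous miR-21; 2000 cells/well in DMEM/10% FBS; compound titration up to ~40uM final, 48 h, 37 degree Celsius; luciferase detection reagent, 15 min lysis, CCD luminescence.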
# Rango dissoc inh: qHTS Assay for Inhibitors of RanGTP induced Rango (Ran-regulated importin-beta cargo) - Importin beta complex dissociation; Potency, µM (titrated, usually from 46.1 µM), without a hit: top-dose activity change, negative = inhibition; Snurportin-1 (Homo sapiens) + GTP-binding nuclear protein Ran (Homo sapiens) + Importin …; Biochemical FRET Rango-importin beta, RanGTP-induced dissociation; 0.071% of 340,000 active; active means falling FRET ratio curve, often poorly fitted, with flat reads before Ran was added; inconclusive means other falling curves, or compound fluorescence or quenching; inactive means flat or rising ratio curve;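 note: potency is the fitted concentration of half-maximal effect; % of control where 0% means no effect; nearly all actives have a fitted effect of over 45% in size; -100% = wells without RanGTP and RCC1; the record marks most hits as doubtful in a second field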
#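 Quantitative HTS using a FRET biosensor: 0.1 uM Rango, 0.25 uM importin beta, 0.6 uM Ran, 2 mM GTP, 0.2 uM RCC1 final, PBS with DTT, Tween-20 and BSA. Post-read taken 45 min after Ran addition.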
# * marks the source's active call; other numbers are inactive results; ? = inconclusive; · = no result given; & = joins results of further samples; [ ] = remark or other dose.
Rango complex inh	GLA inh pH 4.5	miR-21 FLuc	Rango dissoc inh	compound
-3.5%	2	-9%	2%	COCCNC(=O)C(c1ccc(Cl)cc1)N(C(=O)CCC(=O)Nc1ccccn1)C1CCCC1 (stereo not given)
0.6%	8	-2%	21%	Cc1cccc(C)c1NC(=O)c1cccc2c1-c1ccccc1C2=O
0.6%	·	·	20%	CCN(CC(=O)NCc1ccc(F)cc1)C(=O)c1ccc2c(c1)OCO2
6.2%	·	-1%	-6%	O=C(NCc1ccccn1)c1nc(Cn2cc([N+](=O)[O-])cn2)no1
-0.5%	·	·	-9%	O=C(Cc1cccs1)N1CCN(S(=O)(=O)c2ccc(Cl)c(C(F)(F)F)c2)CC1
-0.7%	·	·	19%	CCOC(=O)C1=C(C)N(CCCC(=O)O)C(=O)NC1c1ccc2ccccc2c1 (stereo not given)
-1.6%	0[21.1 µM]	-17%	26%	CC(=O)c1ccc(NC(=O)c2noc(C(C)C)c2[N+](=O)[O-])cc1
8.4%	-7	-2%	-13%	CCCOc1cc(C)c(S(=O)(=O)NCCOC)cc1C
2.2%	0	0%	-11%	CCCOc1ccc(NC(=O)C2CC(=O)N3CCCN=C3S2)cc1 (stereo not given)
-2.9%	·	·	-1%	C=CCn1c(SCC(=O)NCC(c2ccccc2)N(C)C)nc2sc3c(c2c1=O)CCC3 (stereo not given)
-1.6%	·	-3%	12%	COCCNC(=O)COc1ccc(N(C)S(=O)(=O)c2ccc3ccccc3c2)cc1
2.4%	·	·	1%	CCCN(CC(=O)Nc1ccccc1OC)C(=O)c1cc(-c2cccs2)nn1-c1ccccc1
-0.2%	12	1%	-10%	CCn1c(CSc2nncn2-c2ccc(OC)cc2)nc2cc(S(=O)(=O)N(C)C)ccc21
1.3%	10	0%	19%	Cc1ccccc1S(=O)(=O)Cc1ccc(C(=O)NCc2cccnc2)o1
-0.6%	0	-1%&0%	-5%	CCCNC(=O)C(Cc1ccccc1)NS(=O)(=O)c1ccc2c(c1)c(=O)n(C)c(=O)n2C (stereo not given)
-3.3%	·	3%	-7%	CC(C)Oc1cc(C(=O)NC2CCCCC2)c2ccccc2n1
-0.1%	·	·	-2%	CCOC(=O)CC[C@H](NC(=O)Cn1cnc2c(NCc3ccccc3)ncnc21)C(=O)OCC
2.7%	-3[21.1 µM]	0%	1%	O=c1c2oc3ccccc3c2ncn1Cc1ccc(F)cc1
-0.6%	-1	-5%	6%	CCC(=O)NC(=S)Nc1ccc(NC(=O)COc2ccc(Cl)c(C)c2)cc1
-1.3%	-20	21%	-17%	CC(C)(C)OC(=O)NCCCC[C@H](NC(=O)c1nc[nH]c1C(=O)NC1CCN(C(=O)OC(C)(C)C)CC1)C(=O)OC(C)(C)C
-0.8%	·	-11%	12%	Cc1cc(NC(=O)CCN2CCCCC2)ccc1Br
-1.6%	-23	-1%	7%	O=C(c1csc2c1CCCCC2)N1CCN(c2ncccn2)CC1
?	-4&-3	-6%	?	CCCCC1=CC2=CC(=O)C(C)(OC(=O)CC)C(=O)C2=CN1c1ccccc1 (stereo not given)
-3.9%	·	0%	17%	CN1CCN2c3ncccc3Cc3ccccc3[C@@H]2C1
?	17	-14%	?	CS(=O)(=O)Nc1nc2n(n1)C(c1ccccc1)C=C(c1ccc(Br)cc1)N2 (stereo not given)
-1.7%	0	-4%	2%	Cc1ccc(NC(=O)CSc2nc3nc(C)cc(C)c3c(=O)[nH]2)cc1
?	·	1%	?	CCN1CCN(c2nc3c(C)cccn3c(=O)c2/C=C(\C#N)C(=O)NCCOC)CC1
3.3%	-28	-37%	-4%	COc1ccc(/C=N/NC(=O)c2cc(C)n(-c3ccccc3)c2C)cc1OC
0.7%	-26	1%	-2%	NC(=S)Nc1cccc2cccnc12
-1.6%	-8	-2%	-6%	Cc1nc(NC(=O)CSc2nc3cccnc3n2Cc2ccccc2)sc1C
4.4%	·	1%	16%	COc1ccc(Cc2nnc(SCC(=O)Nc3ccc(N4CCOCC4)cc3)n2C)cc1
-2.8%	·	-18%	0%	COc1ccc(OCC(=O)NC2CCCCCCC2)cc1
3.6%	7	9%	6%	Cc1nn(-c2ccccc2)c(C)c1NC(=O)CCl
-0.1%	·	-14%	1%	Cc1ccccc1N1CCN(S(=O)(=O)Cc2ccccc2)CC1
-2.4%	-10	-60%	0%	Cc1ccc(/C(N)=N/OC(=O)Cc2ccccc2)cc1
?	6	-9%	-19%	COC(=O)c1c(NC(=O)COC(=O)c2ccc(NC(=O)CC#N)cc2)sc2c1CCCCC2
0.3%	·	0%	0%	CCOc1ccc(CCNC(=O)C2CC(=O)N(Cc3ccc(OC)cc3)C2)cc1OCC (stereo not given)
?	·	·	-9%	CCOc1ccc2nc(SCC(=O)N(CC(C)C)c3c(N)n(CC(C)C)c(=O)[nH]c3=O)[nH]c2c1
1.1%	6	-2%	2%	CC(C)CC(NC(N)=O)C(=O)OCC(=O)Nc1ccc(OC(F)F)cc1 (stereo not given)
-0.5%	·	4%	-20%	COc1ccc(-c2cc(=O)oc3cc(OC(C)C(=O)NCc4ccccn4)ccc23)cc1 (stereo not given)

# Overlap with the part before: two compounds, followed by the next part.
Rango complex inh	GLA inh pH 4.5	miR-21 FLuc	Rango dissoc inh	compound
1.1%	6	-2%	2%	CC(C)CC(NC(N)=O)C(=O)OCC(=O)Nc1ccc(OC(F)F)cc1 (stereo not given)
-0.5%	·	4%	-20%	COc1ccc(-c2cc(=O)oc3cc(OC(C)C(=O)NCc4ccccn4)ccc23)cc1 (stereo not given)
-2.0%	-6	-3%	-2%	Cc1ccc(S(=O)(=O)/N=C/c2ccc(N(C)C)cc2)cc1
1.3%	1	-14%	17%	Cc1cnc2cc([N+](=O)[O-])ccc2n1
6.5%	-9	-21%	28%	COc1ccc(C2CC(c3ccccc3)=NN2C(=O)COC(=O)COc2ccccc2)cc1 (stereo not given)
?	-3	13%	?	COc1ccc(C(=O)/C=C/c2cn(CC(O)CN3CCN(C)CC3)c3ccccc23)cc1OC (stereo not given)
3.4%	6	1%	-30%	O=C(c1ccccc1)C1CN(c2ccccc2)CC1c1ccc(Cl)cc1 (stereo not given)
3.1%	-27	-19%	-1%	O=C1Nc2ccccc2S/C1=C/NCc1ccccc1Cl
-4.2%	·	-1%	-3%	O=C(CCC(=O)N1CCN(c2ccc(F)cc2)CC1)c1ccc(Cl)cc1
?	·	·	?	O=C1[C@@H]2[C@@H](CN3CN(c4ccccc4)N=C(c4ccccc4)[C@@]23c2ccccc2)C(=O)N1c1ccccc1
-2.1%	?	-15%	-3%	Cc1ccc2nc(SCc3nnc(-c4ccccc4)o3)[nH]c2c1
-0.5%	·	·	34%	CCN(CC)c1ccc(C(=O)NNC(=O)CN2C(=O)NC(C)(c3ccccc3)C2=O)cc1 (stereo not given)
-0.7%	·	·	-2%	CC(C)c1cccc(-c2ccc3c(c2)S(=O)(=O)c2cccc(C(=O)NCc4ccco4)c2C3=O)c1
1.0%	-6	-12%	8%	O=C(Cc1ccc(S(=O)(=O)N2CCCCC2)s1)Nc1ccc(F)cc1F
-2.5%	4	-4%	0%	Cc1cccc(OCc2nnc(SCC(=O)Nc3ncc(C)s3)o2)c1
-2.0%	·	0%	?	CCCCn1c(N)c(N(CC(C)C)C(=O)C2CCN(C(=O)c3ccc(F)cc3)CC2)c(=O)[nH]c1=O
-0.1%	·	0%	-13%	Cc1ccc(C)c(NC(=O)C2CCCN(S(=O)(=O)c3c(C)nn(C)c3C)C2)c1 (stereo not given)
1.8%	-5	-9%	-8%	COC(=O)c1ccc(Nc2nc(C)cc(=O)[nH]2)cc1
5.7%	·	0%	-15%	Cc1c(C(=O)N(C)CCC#N)oc2ccc(S(=O)(=O)N3CCOCC3)cc12
-0.7%	4	-4%	-3%	CCCCCC(=O)NNC(=S)NC(=O)c1cccc([N+](=O)[O-])c1
1.7%	4	-4%	-12%	Cc1ccc(C(=O)C2=C(O)C(=O)N(Cc3ccccc3)C2c2cccnc2)o1 (stereo not given)
5.2%	-12	2%	-12%	Cc1ccc(S(=O)(=O)N2CCN(CC(=O)N/N=C/C=C/c3ccccc3)CC2)cc1

# Reprinted at random: 4 compounds from above.
Rango complex inh	GLA inh pH 4.5	miR-21 FLuc	Rango dissoc inh	compound
1.3%	10	0%	19%	Cc1ccccc1S(=O)(=O)Cc1ccc(C(=O)NCc2cccnc2)o1
?	·	1%	?	CCN1CCN(c2nc3c(C)cccn3c(=O)c2/C=C(\C#N)C(=O)NCCOC)CC1
?	·	·	-9%	CCOc1ccc2nc(SCC(=O)N(CC(C)C)c3c(N)n(CC(C)C)c(=O)[nH]c3=O)[nH]c2c1
-0.6%	0	-1%&0%	-5%	CCCNC(=O)C(Cc1ccccc1)NS(=O)(=O)c1ccc2c(c1)c(=O)n(C)c(=O)n2C (stereo not given)

# Carrying on.
Rango complex inh	GLA inh pH 4.5	miR-21 FLuc	Rango dissoc inh	compound
4.3%	0	14%	0%	O=C(Nc1nc(-c2ccc(Cl)s2)cs1)c1ccncc1
-0.1%	9	-5%	7%	COc1ccc(CCNS(=O)(=O)c2ccc3c(c2)CCN3C(=O)C2CC2)cc1OC
0.3%	-16	1%	2%	Cc1ccc(NC(=O)COC(=O)Cn2cnc3ccccc32)cc1S(=O)(=O)N(C)C
-1.3%	·	·	-8%	O=C(CCN1C(=O)C2CCCCC2C1=O)N1CCN(S(=O)(=O)c2ccccc2)CC1 (stereo not given)
-2.1%	7	-2%	7%	CC(C)(C)n1nnnc1C(c1cccnc1)N1CCN(c2ccccc2)CC1 (stereo not given)
0.5%	·	-18%	0%	O=C(C1COc2ccccc2O1)N1CCN(Cc2ccccc2)CC1 (stereo not given)
0.5%	-17	-8%	-4%	CCc1ccc(NC2CC(=O)N(CCc3ccc(OC)c(OC)c3)C2=O)cc1 (stereo not given)
-0.2%	·	·	-3%	CCC(=O)c1coc2ccc(O)cc12
-1.0%	-7	5%	-4%	Cc1ccccc1NC(=O)CSc1nnc(-c2ccoc2C)n1CCc1ccccc1
0.6%	·	·	7%	NS(=O)(=O)c1ccc(CCNC(=O)COC(=O)CCN2C(=O)C3CC=CCC3C2=O)cc1 (stereo not given)
0.2%	4	0%	0%	CCCNC(=O)Cn1cnc2sc(C(=O)NCCN(CC)CC)c(C)c2c1=O
0.1%	1	-5%	25%	O=[N+]([O-])c1cc(S(=O)(=O)N2CCCC2)ccc1NCCc1ccccc1
-0.2%	·	-10%	5%	CCc1ccc(OC(=O)/C=C/c2ccco2)cc1
?	18	-2%	-19%	CCOC(=O)c1cc(-c2cc3ccccc3o2)nc2c1c(=O)[nH]c(=O)n2CCOC
4.5%	·	·	-7%	CCOc1ccc(NC(=O)CN(C)C(=O)c2cc(-c3ccc(OC)cc3)nc3ccccc23)cc1OCC
58µM*	·	·	14%	C#CCOCCOCCOCCNc1nc(N2CCN(C(=O)[C@H](CCCN=C(N)N)n3cc(C(N)[C@@H](C)CC)nn3)CC2)nc(N2CCN(C(=O)[C@H](CCCCN)n3cc([C@@H](N)[C@H](C)CC)nn3)CC2)n1 (stereo not given in full)
2.7%	-4	-7%	-1%	CCOC(=O)NC1(NCc2ccccc2)Oc2ccccc2O1
-0.5%	·	·	-10%	CCCCn1c(N)c(N(CC(C)C)C(=O)C2CC(=O)N(c3ccc(C)cc3)C2)c(=O)[nH]c1=O (stereo not given)
0.9%	·	·	18%	CC(Sc1nnc(Cc2cccs2)n1C1CC1)C(=O)NC1CCS(=O)(=O)C1 (stereo not given)
0.6%	5	-5%	0%	COC(=O)c1ccc(S(N)(=O)=O)o1
-2.8%	·	-2%	1%	COc1ccc(N(CC(=O)N/N=C/c2ccccc2F)S(=O)(=O)c2ccccc2)cc1
2.3%	-2	-8%	5%	O=C(O)C1CCCCC1C(=O)Nc1ccc(Cl)cc1Cl (stereo not given)
?	·	·	-4%	O=C(COC(=O)c1ccncc1)Nc1ccc2c(c1)OCO2
1.9%	·	-8%	4%	CN1CCOc2ccc(S(=O)(=O)NCCc3ccc(Cl)cc3)cc21

# These rows are one share of the data; count on the stated rates, not on these rows.
